Beta2AR agonist = activates human beta-2 adrenergic receptor causing internalization | response, % (no concentration beside the values) | P07550 | Am2.2-beta2AR cells, FAP receptor internalization, flow cytometry; reference of the scale not given here | hit rate 0.43% among 340,000 | AID 504454;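 active = response above a set limit, near 3 SD of response in nonfluorescent compounds, cut at about 42% in these data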;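 note: stock transfer was 100 nL into about 11 µL; a reference agonist was the positive control; negative values mostly stem from fluorescent compounds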
Target sequence (P07550 whole entry, looked up): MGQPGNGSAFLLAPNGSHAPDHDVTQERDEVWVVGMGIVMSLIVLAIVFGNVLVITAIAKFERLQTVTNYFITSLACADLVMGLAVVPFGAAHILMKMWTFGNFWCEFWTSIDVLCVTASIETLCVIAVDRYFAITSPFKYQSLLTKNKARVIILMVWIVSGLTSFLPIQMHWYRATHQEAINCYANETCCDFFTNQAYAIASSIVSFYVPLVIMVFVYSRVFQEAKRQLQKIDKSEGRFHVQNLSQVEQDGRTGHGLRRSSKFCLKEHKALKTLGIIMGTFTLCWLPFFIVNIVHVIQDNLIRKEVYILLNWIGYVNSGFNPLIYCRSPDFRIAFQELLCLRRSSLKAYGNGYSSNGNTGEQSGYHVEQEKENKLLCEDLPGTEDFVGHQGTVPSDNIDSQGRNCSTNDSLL
Ecoli growth = blocks Escherichia coli growth. OD600, 23 h; hits give low values. OD600 absorbance (test concentration not listed). hit rate 0.21% among 330,000;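 active = OD600 absorbance below the run mean of sample wells minus 3.6 SD, in any replicate, cut at about 0.56 in these data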;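 note: stock transfer was 300 nL into about 60 µL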
UCH37 inh = inhibitors of human deubiquitinating enzyme UCH37 | Q9Y5K5 | purified proteasome/UCH37, Ub-AMC cleavage fluorescence | inhibition, % (no concentration beside the values) | hit rate 0.33% among 330,000 | AID 588478;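 active = mean of two replicates above 20%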;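 note: 0% = compound-free wells with enzyme and 100% = wells lacking proteasome; stock transfer was 100 nL into about 20 µL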
Target sequence (Q9Y5K5 whole entry, looked up): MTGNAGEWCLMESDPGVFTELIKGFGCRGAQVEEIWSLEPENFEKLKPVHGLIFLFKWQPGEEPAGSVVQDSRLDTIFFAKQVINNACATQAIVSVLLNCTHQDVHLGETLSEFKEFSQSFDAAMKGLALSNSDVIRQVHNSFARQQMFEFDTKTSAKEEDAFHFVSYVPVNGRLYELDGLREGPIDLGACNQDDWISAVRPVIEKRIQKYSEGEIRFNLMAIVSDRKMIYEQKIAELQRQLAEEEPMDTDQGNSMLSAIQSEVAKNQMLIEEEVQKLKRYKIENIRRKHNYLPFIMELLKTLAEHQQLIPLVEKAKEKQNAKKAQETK
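assay system = human UCH37 enzyme supplied as purified proteasome complex | amount = proteasome at 0.15 nM in the dispensed enzyme solution | schedule = 30 min compound-proteasome preincubation then 25 min substrate reaction, room temperature | measured by = fluorescence, ex 355 nm, em 460 nm | benchmarks = no-proteasome wells (full inhibition) and compound-free wells (no inhibition)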
rRNA inh HTS = inhibits bacterial ribosomal RNA function over humanized ribosomes; hit rate 1.6% among 350,000; GFP signal change (wild-type ribosome), % (concentration not given with the values); E. coli WT GFP vs humanized-ribosome RFP mutants, fluorescence, 24 h; hits give low values; DMSO median 0, no signal -100; AID 720706;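 active = significant combined selectivity score with lowered wild-type GFP, culture density cut under 30%, mutant RFP and density less affected; inactive = any of these conditions unmet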; note: one replicate is shown; some compounds called inactive have numbers as strong as hits
HNF4A DNA FP = change in binding of human HNF4 alpha to DNA; P41235; HNF4a-FITC DNA binding, fluorescence polarization, 1 h; activity change, % at 10 µM; hit rate 0.3% among 360,000; AID 1224865; in the data active = activity change above about 30%, passing the limit was not always enough;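 note: controls were the assay level and a saturating level of protein; the project sought stronger binding though the title names inhibitors; some compounds called inactive have numbers as strong as hits; positive values seem to mean higher polarization but the record does not say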
FGF22 binding = FGF22 (human) thermal shift binding; calls only at 9.99 µM; AID 651658; Q9HCT0; hit rate 1.5% among 340,000; recombinant FGF22 thermal shift, SYPRO orange fluorescence; percent of sucrose octasulfate shift, DMSO zero;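 active = melting point raised past a set limit in the mean and every replicate; three in four hits are not shown here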
ALR inh = human ALR oxidase inhibition via reduced H2O2. inhibition, % (no concentration beside the values). purified ALR, DTT oxidation, H2O2 HRP-luminol luminescence. P55789. hit rate 3.8% among 290,000;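 active = mean and each replicate at 75% or more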;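 note: stock transfer was 7.5 nL into about 7.5 µL; 0% = neutral wells and 100% = wells with inactivated enzyme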
Target sequence (P55789 whole entry, looked up): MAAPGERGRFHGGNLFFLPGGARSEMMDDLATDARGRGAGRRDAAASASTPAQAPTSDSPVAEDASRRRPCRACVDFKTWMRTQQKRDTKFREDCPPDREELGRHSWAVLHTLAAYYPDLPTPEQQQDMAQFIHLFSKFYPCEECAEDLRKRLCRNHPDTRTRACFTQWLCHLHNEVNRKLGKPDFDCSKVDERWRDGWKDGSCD
rRNA inh HTS OD600 = also measured in rRNA inh HTS; calls as there; OD600 change, %; measured here: OD600 growth;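 optical density of the mix in the first replicate; 0 = DMSO median and -100 = no signal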
rRNA inh HTS RFP = further read-out of rRNA inh HTS, marked with its call; RFP signal change, %; measured here: RFP humanized mutant strains;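 first replicate; 0 = DMSO median and -100 = no signal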
Starred values were filed as active, the others as inactive; i = inactive; . = no result given; & = joins results of further samples. These rows are one share of the data, so the mix of outcomes need not match the whole.

SMILES	Beta2AR agonist	Ecoli growth	UCH37 inh	rRNA inh HTS	rRNA inh HTS OD600	rRNA inh HTS RFP	HNF4A DNA FP	FGF22 binding	ALR inh
CCOC(=O)C1=C(C)N(C)C(=O)NC1c1cccc(O)c1 (stereo not drawn)	-3	0.78	3.0	.	.	.	-0.7	.	7
O=C(CSc1nnc(-c2cccnc2)o1)NNC(=O)c1ccc(Br)cc1	-9	0.69	4.1	3	0	-1.7	-4.5	i	-11
Cc1cc2ncn(CCOc3ccccc3)c2cc1C	6	0.7	-3.2	.	.	.	4.0	.	45
CC1Cc2cc(/C(O)=C3/C(=O)C(=O)N(CCN4CCOCC4)C3c3ccc([N+](=O)[O-])cc3)ccc2O1 (stereo not drawn)	-2	0.73	9.5	-4	10	-1.3	0.0	i	38
COc1ccc(-c2cn3cc(C)ccc3n2)cc1F	-10	0.62	-59	-31*	-25*	-5.2*	0.2	i	5
CC(C)CCOC(=O)C(C)Sc1n[nH]c(=O)[nH]c1=O (stereo not drawn)	0	0.69	0.6	-1	-3	1.0	5.0	i	-8
COCCNC(=O)c1csc(Nc2cccc3ccccc23)n1	-3	0.67	3.4	-7	-12	4.3	-1.0	i	-22
COc1ccc(CCNC(=O)CSc2ccc(-c3cccs3)nn2)cc1OC	0	0.7	4.8	0	6	-4.1	1.0	i	.
Cc1cc(-c2ccc(Cl)cc2)c(C#N)c(N)n1	-2	0.66	-87	12	1	-5.7	2.9	i	-8
O=C(Cc1cc(=O)[nH][nH]1)N/N=C/C=C/c1ccccc1	2	.	.	.	.	.	-0.6	.	-23&24
Cc1nc2ccc(N=NC3=C(O)CCCC3=O)cc2s1	0	0.77	11	.	.	.	1.6	.	-8
c1ccc(CN2CCN(c3nc(NCc4ccco4)c4ccccc4n3)CC2)cc1	9	0.52	-40	.	.	.	3.4	.	3
Cc1nn(C)c2ncc(C(N)=O)c(Oc3cccnc3)c12	2	0.65	-5.5	-19	-22	5.8	0.7	i	-4
CC(C)=CCC/C(C)=C/CC/C(C)=C/CC/C(C)=C/CC1=C(C)C(=O)c2ccccc2C1=O	9	.	0.5	.	.	.	1.5	i	.
Cc1cccc(NC(=O)CCS(=O)(=O)c2ccc3c(c2)NC(=O)CS3)n1	-6	0.7	3.2	9	9	-1.2	-0.3	i	-5
COc1ccc(C(CNC(=O)C(CCSC)NC(=O)c2ccccc2Cl)N2CCOCC2)cc1 (stereo not drawn)	-4	0.62	5.2	6	7	3.0	-1.9	i	-2
CN(/C(=N\S(=O)(=O)c1ccccc1)c1ccccc1)c1ccc(O)cc1	-2	.	.	.	.	.	-1.1	.	-12
CCCOc1ccc(N2C(=O)CC(N3CCC(C(=O)OCC)CC3)C2=O)cc1 (stereo not drawn)	-3	0.68	4.4	.	.	.	1.3	.	0
O=C1N/C(=C\c2ccsc2)C(=O)N1Cc1ccc(F)cc1	-6	0.71	1.7	15	9	4.7	-0.1	i	2
CCc1ccc(-c2ccc(SCC(=O)NCC3CCCO3)nn2)cc1 (stereo not drawn)	8	0.67	1.3	-3	-6	2.4	-0.1	i	-2
CCOc1c(Cl)cc(C2NC(=O)NC(C)=C2C(=O)NCc2ccccc2)cc1OC (stereo not drawn)	10	0.64	0.1	.	.	.	-0.6	.	-1
CCc1c(C)nc2ncnn2c1N1CCC(C(=O)Nc2ccc(C)cc2)CC1	-14	0.73	3.4	.	.	.	0.5	.	5
O=C1C2C3C=CC(C3)C2C(=O)N1c1ccc(Cc2ccncc2)cc1 (stereo not drawn)	6	0.66	0.0	.	.	.	1.5	.	-8
Nc1cc(OCc2ccccc2)ccc1OCc1ccccc1	-1	0.66	4.4	-1	-6	-1.0	-0.2	i	.
COc1ccc(-c2nc3cc(C)c(Br)c(C)n3c2CC2CCCCC2)cc1OC	.	.	.	13	8	8.3	4.1	i	.
CCCOc1ccc(C(=O)NNC(=O)CCNC(=O)c2ccccc2Cl)cc1OC	0	0.69	3.7	9	16	4.4	-1.7	i	.
CN(CC(=O)NCCc1ccc(S(N)(=O)=O)cc1)CC(=O)Nc1ccc(F)c(F)c1F	1	0.69	3.9	4	10	0.1	2.5	i	-5
Cc1ccccc1-c1cccc([C@@H]2C[C@H]3[C@H](CON3C)CN2S(=O)(=O)c2ccccc2C)c1	12	.	.	-1	-1	-0.4	-1.0	i	.
COc1ccccc1N1CCN(CC(O)c2c(C)[nH]c3ccccc23)CC1 (stereo not drawn)	3	0.61	-0.2	7	4	4.3	2.7	i	15
CCOC(=O)c1c(NC(=O)COc2cccc3c2CCN(C)C3=O)sc2c1CCC2	1	0.61	-8.5	-10	-7	2.2	2.0	i	87*
O=C(c1nc2nc(-c3cccs3)cc(C(F)(F)F)n2n1)N1CCN(Cc2ccccc2)CC1	18	0.68	-245	.	.	.	2.4	.	-17
COc1ccc2[nH]c3c(NCCN(C(C)C)C(C)C)ncnc3c2c1	7	0.7	-31	.	.	.	1.6	.	-14
COc1cccc(N2CC(C(=O)Nc3nnc(SCC(=O)N4CCOCC4)s3)CC2=O)c1 (stereo not drawn)	-2	0.71	-0.2	17	10	0.1	-6.2	i	58
Cc1cc(NC(=O)COC(=O)c2ccc(NS(=O)(=O)c3ccc(C)c(C)c3)cc2)no1	7	0.67	0.1	.	.	.	-0.7	.	-31
C#CCOC(=O)C[N+](C)(C)C/C=C/c1ccccc1	4	0.7	4.4	11	13	1.6	2.4	i	-3
Cc1[nH]c2ccccc2c1C(=O)CSc1nc2ccccc2c(=O)n1-c1ccccc1F	.	0.72	1.0	20	13	4.4	.	i	-6
CCOC(=O)N1CCN(C(=O)COC(=O)c2cccc(C)c2[N+](=O)[O-])CC1	10	0.67	0.0	9	11	-0.4	-1.0	i	.
C=C(C)C(=O)Nc1cccc(C2=NOC3(C2)C[C@H](C(N)=O)N(C(=O)/C=C/C)C3)c1 (stereo partly drawn)	-3	.	4.7	2	9	20	-54	i	.
CC1(C)CC2CC(C)(CN2/C=C2/CCCCC2=O)C1 (stereo not drawn)	11	0.71	3.5	10	1	-5.4	-2.1	.	-21
Cc1ccc(/C=N/NC(=O)c2cccc(NC(=O)c3ccccc3C)c2)o1	12	.	.	.	.	.	-0.3	i	1
Cn1c(=O)c2c(ncn2CC(O)CNc2ccc(Br)cc2)n(C)c1=O (stereo not drawn)	0	0.66	1.9	.	.	.	0.5	.	62
Cc1cnc(C(=O)OCC(=O)N2C(C)CCCC2C)cn1 (stereo not drawn)	-3	0.72	2.0	4	8	-3.0	-0.4	i	-4
COc1ccc2c(c1)c1c(c(=O)n(-c3ccc(C)cc3)c(=O)n1CC(=O)NCC1CCCO1)n2C (stereo not drawn)	.	.	.	4	12	0.1	16	i	.
CCOC(=O)CSc1nc2cccnc2n1C	6	0.68	5.0	20	21	2.5	0.7	i	-1
COc1ccc(C2OCC(C)(C)CO2)cc1OC	-4	0.7	2.4	17	11	3.3	4.8	i	.
CC1(C(=O)OCC(=O)Nc2ccccc2Cl)CC1(Cl)Cl (stereo not drawn)	7	0.66	5.5	8	4	1.0	5.1	i	-12
O=C(Nn1cc(C(=O)Nc2ccc(F)cc2F)c2ccccc2c1=O)c1cnccn1	-4	.	.	-34	-40	-8.5	0.4	i	.
Cc1ccc(NC(=O)COC(=O)[C@H](C)NC(N)=O)c(C)c1	4	0.68	0.7	10	13	-0.5	2.5	i	-7
O=CNC1CCCc2c1[nH]c1ccc(Cl)cc21 (stereo not drawn)	4	0.67	3.8	.	.	.	-0.4	.	31
Cc1cc(C(C)(C)C)cc(C)c1CC1=NCCN1	3	0.7	2.0	.	.	.	-0.8	i	-20
CC1CN(C)C(c2ccccc2)C(C)C12NC(=O)NC2=O (stereo not drawn)	9	0.75	1.4	.	.	.	-1.2	.	18
O=C(O)CCn1cc(/C=C2\SC(=S)NC2=O)c(-c2ccccc2)n1	-7	.	5.6	-5	3	3.5	4.0	.	55
Cc1nn(-c2ccc(F)cc2)c(-n2cccc2)c1C(=O)N1CCN(C(=O)c2ccco2)CC1	-8	0.71	5.3	-2	-5	-1.8	1.9	i	-2
CCOc1cc(/C=N/NC(=O)c2cccnc2)ccc1OC(=O)c1ccco1	5	.	.	14	9	1.2	-3.7	i	19
CCCCOP(=O)(c1ccc(N(C)C)cc1)C(O)c1ccccc1F (stereo not drawn)	1	0.67	2.2	.	.	.	-1.3	.	-5
COC(=O)c1ccc(Cn2nc(C)c(Br)c2C)cc1	0	0.71	4.8	.	.	.	-2.3	.	-5
CCOC(=O)C1=CN(Cc2cccc(F)c2)S(=O)(=O)N(CC)C1c1ccc(F)c(Cl)c1 (stereo not drawn)	10	.	.	3	9	-1.1	1.5	i	.
O=C(Nc1cccc(O)c1)c1ccc(S(=O)(=O)N2CCCCCC2)cc1	5	0.71	-0.7	-7	-4	-2.1	-2.5	i	.
O=C(Nc1ccc(C(=O)N2CCN(c3ccccn3)CC2)cc1)c1ccc(Br)o1	-4	0.68	0.8	-14	-4	1.0	-0.6	i	1
O=C(/C(=C\c1ccccc1)c1nc2ccccc2[nH]1)c1ccc(Cl)cc1	15	0.72	4.0	.	.	.	-0.9	.	.

Later entries
SMILES	Beta2AR agonist	Ecoli growth	UCH37 inh	rRNA inh HTS	rRNA inh HTS OD600	rRNA inh HTS RFP	HNF4A DNA FP	FGF22 binding	ALR inh
CCN(CC(=O)NCc1ccc(Cl)cc1)C(=O)c1cc2ccccc2o1	-4	0.68	-0.5	-3	-9	-1.5	-0.9	i	0
Cc1cc(=O)oc2cc(NC(=O)c3ccc(OC(F)F)cc3)ccc12	-4	0.7	-178	9	16	-1.0	-1.3	i	-1
COc1ccc([N+](=O)[O-])cc1NC(=O)CSCc1ccccc1	-6	0.68	4.0	.	.	.	2.3	.	-9
O=C1CN(S(=O)(=O)c2ccc(Cl)cc2C(F)(F)F)CCN1	-4	0.72	0.3	9	15	1.7	2.5	i	-2
CCOc1cc(C2NC(=S)NC(C)=C2C(=O)Nc2ccccc2)ccc1O (stereo not drawn)	-5	0.66	-1.6	5	-1	0.4	2.1	i	56
Cc1ccc(-c2nnn(CC(=O)NC(=O)NC3CCCCC3)n2)cc1	3	0.65	0.5	-1	-16	3.7	-1.8	i	.
Cc1ccc2c(c1)C(c1ccccc1)N(C(=O)c1cccc([N+](=O)[O-])c1)CC(=O)N2 (stereo not drawn)	-3	0.64	5.0	4	-2	-3.7	0.8	i	-10
C/C(N)=C(/C#N)C(=O)CSc1nc(-c2ccccc2)c(-c2ccccc2)o1	-4	0.72	-1.6	-9	-24	24	3.3	i	3
c1csc(-c2cnc3n2CCCC3)c1	1	0.71	-1.7	.	.	.	-0.5	.	-1

Given field by field: entries from further up.
CCOc1cc(C2NC(=S)NC(C)=C2C(=O)Nc2ccccc2)ccc1O (stereo not drawn)
  Beta2AR agonist: -5; Ecoli growth: 0.66; UCH37 inh: -1.6; rRNA inh HTS: 5; rRNA inh HTS OD600: -1; rRNA inh HTS RFP: 0.4; HNF4A DNA FP: 2.1; FGF22 binding: i; ALR inh: 56
C/C(N)=C(/C#N)C(=O)CSc1nc(-c2ccccc2)c(-c2ccccc2)o1
  Beta2AR agonist: -4; Ecoli growth: 0.72; UCH37 inh: -1.6; rRNA inh HTS: -9; rRNA inh HTS OD600: -24; rRNA inh HTS RFP: 24; HNF4A DNA FP: 3.3; FGF22 binding: i; ALR inh: 3
